Cruzain Triton: qHTS Assay for Promiscuous and Specific Inhibitors of Cruzain (with detergent). Potency, µM, without a hit: max response, negative = inhibition, hits mostly inhibitors. 200,000 compounds, 0.43% hits. Cruzipain (Trypanosoma cruzi), P25779. AID 1478, 2009. purified cruzain, Z-FR-AMC fluorescence, 0.01% Triton;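 further: plate controls were neutral wells for no effect and buffer without enzyme for full effect; nearly all actives have a fitted effect of over 40% in size; top concentration of the series not given in the record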
Target sequence (P25779 123-467 limits assumed): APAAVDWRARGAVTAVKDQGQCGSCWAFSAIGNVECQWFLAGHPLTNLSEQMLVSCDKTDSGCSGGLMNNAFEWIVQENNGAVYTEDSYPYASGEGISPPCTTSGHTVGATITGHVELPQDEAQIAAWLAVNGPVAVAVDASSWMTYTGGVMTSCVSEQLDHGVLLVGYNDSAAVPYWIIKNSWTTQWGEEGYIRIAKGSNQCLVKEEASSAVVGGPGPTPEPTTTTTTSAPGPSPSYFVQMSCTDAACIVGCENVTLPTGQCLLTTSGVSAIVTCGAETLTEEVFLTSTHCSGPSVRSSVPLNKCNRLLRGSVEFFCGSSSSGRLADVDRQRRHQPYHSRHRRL
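Purified cruzain (1.5 nM final) was preincubated with compounds for 15 min at room temperature in 100 mM sodium acetate pH 5.5, 5 mM DTT, 0.01% Triton X-100. Reaction started with 2 uM Z-FR-AMC; AMC fluorescence change over 60 s gave activity.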
Cruzain inh noDet: qHTS Assay for Promiscuous and Specific Inhibitors of Cruzain (without detergent) | Cruzipain (Trypanosoma cruzi), P25779 | purified cruzain, Z-FR-AMC fluorescence, no detergent | Potency, µM, for inactives: max response, negative = inhibition, actives largely listed as inhibitors | 200,000 compounds, 2.3% hits;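 further: plate controls were enzyme without inhibitor for no effect and buffer without enzyme for full effect; nearly all actives have a fitted effect of over 40% in size; top concentration of the series not given in the record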
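Detergent-free condition (0.00005% Triton X-100) in acetate buffer pH 5.5 with DTT. 1.5 nM enzyme and compound were pre-mixed 15 min, then 2 uM Z-FR-AMC substrate added; reaction progress from fluorescence change between first and third reads (60 s).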
NS1 function inh: qHTS Assay for Inhibitors of Influenza NS1 Protein Function. S. cerevisiae slowed by influenza A NS1, growth recovery by OD600. 270,000 compounds, 0.4% hits. Potency, µM (highest dose often 46.1 µM), for inactives: top-dose activity, positive = more growth; active means well fitted rising curve with a large enough effect; inconclusive means small, poorly fitted or top-dose-only effect; inactive means no such curve, though single readings can be large or run the other way; further: nearly all actives have a fitted effect of over 50% in size
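Recovery from NS1-induced slow growth read by OD600 in budding yeast switched to galactose assay medium (pH 6.0, -URA) at 1:100 dilution. Compound 23 nl per well; the matching strain lacking NS1 serves as control.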
MARV entry inh: qHTS for inhibitors of binding or entry into cells for Marburg Virus | Marburg virus pseudotyped entry inhibition, cell reporter; control for the full effect not named in the record; about a third of the inactives were read at about 46 µM | Potency, µM (titrated, usually from 37.8 µM), without a hit: top-dose activity change, negative = inhibition, hits mostly inhibitors | 300,000 compounds, 1.8% hits; active = well fitted inhibition curve with a large enough effect; inconclusive = small, poorly fitted or top-dose-only effect, or effect the other way; inactive = flat fitted curve, though single readings scatter; tested in HEK293 cells; about a fifth of its hits are not listed in these tables; further: on the % scale 0 is the no-effect control and ±100 the full control effect; luciferase read-out
RE007 growth inh: qHTS Assay for Inhibitors of the HIV-1 protein Vpr | S. pombe RE007 Vpr strain, BacTiter-Glo ATP luminescence, 24 h; control for the full effect not named in the record | 360,000 compounds, 0.21% hits | Potency, µM (doses to about 92.2 µM), inactives show top-dose activity change, negative = less growth; active = well fitted falling curve with a large enough effect; inconclusive = small, poorly fitted or top-dose-only effect; inactive = no such curve, though single readings can be large or run the other way;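 further: on the % scale 0 is the no-effect control and ±100 the full control effect; nearly all actives have a fitted effect of over 50% in size; the assay follows cell death caused by Vpr and the record does not say whether a fall means rescue or toxicity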
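Fission yeast RE007 carrying one integrated HIV-1 vpr copy, seeded at OD 0.01 in PMG+AL medium with 23 nL pinned compound. Grown 24 h at 30 degrees; viability read by BacTiter-Glo luminescence after 5 min.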
LASV entry inh: qHTS for Inhibitors of binding or entry into cells for Lassa Virus. Lassa virus pseudotype entry inhibition, cell reporter; control for the full effect not named in the record. Potency, µM (highest dose often 37.9 µM), for inactives: top-dose activity change, negative = inhibition, actives largely listed as inhibitors. 300,000 compounds, 1.2% hits; active means well fitted inhibition curve with a large enough effect; inconclusive means small, poorly fitted or top-dose-only effect, or effect the other way; inactive means flat fitted curve, though single readings scatter; tested in HEK293 cells; further: on the % scale 0 is the no-effect control and ±100 the full control effect; nearly all actives have a fitted effect of over 50% in size; luciferase read-out
StopGo reporter: High Throughput Screening for Foot and Mouth Disease Virus Antivirals | human cells with a luciferase reporter of 2A StopGo recoding; control for the full effect not named in the record | Potency, µM (series often up to 57.9 µM), for the others: at the highest dose signal change, negative = less light | 410,000 compounds, 1.2% hits | AID 1159524, 2015; active = well fitted falling curve with a large enough effect; inconclusive = small, poorly fitted or top-dose-only effect; inactive = no such curve, though single readings can be large or run the other way; tested in HEK293T cells; further: on the % scale 0 is the no-effect control and ±100 the full control effect; nearly all actives have a fitted effect of over 45% in size; luciferase light after 4 h
SARS PLpro yeast: qHTS of Yeast-based Assay for SARS-CoV PLP | S. cerevisiae expressing SARS-CoV PLpro, growth rescue; control for the full effect not named in the record | Potency, µM (top dose mostly 32.9 µM), inactives show at the highest dose activity, positive = growth rescue | 330,000 compounds, 0.19% hits | AID 485353, 2010; active means well fitted rising curve with a large enough effect; inconclusive means small, poorly fitted or top-dose-only effect; inactive means no such curve, though single readings can be large or run the other way; further: 0% is about no effect; nearly all actives have a fitted effect of over 55% in size; growth read by luminescence after 48 h
* = called active by the depositor; & = joins results of further samples; [ ] = dose if it differs, or a comment. Unless noted, the call rests on the fitted dose curve; in most records, active means well fitted curve in the direction sought with a large enough effect; inconclusive means small, poorly fitted or top-dose-only effect, or another doubt; inactive means no such curve, though single readings can be large; an effect the other way counts as inactive or inconclusive. Potency means the concentration at half of the fitted maximal effect.

For Cc1nn(-c2ccccc2)c(C)c1/C=N/NC(=O)c1cc(-c2ccccc2)n[nH]1 the results were Cruzain Triton -6.2%, Cruzain inh noDet inconclusive, NS1 function inh 4%, MARV entry inh inconclusive, RE007 growth inh 0%, LASV entry inh inconclusive, StopGo reporter -26% and SARS PLpro yeast -11%.
CCC(C)(C)n1nnnc1C(c1ccc2ncccc2c1)N1CCCCCC1 (configuration not stated) was read as Cruzain Triton -1.9%, Cruzain inh noDet -11%, NS1 function inh 7%, MARV entry inh 3%, RE007 growth inh 3%, LASV entry inh 1%, StopGo reporter -16% and SARS PLpro yeast 4%.
`O=C(NC(=S)Nc1ccccc1N1CCOCC1)c1cccc([N+](=O)[O-])c1` gave NS1 function inh 10%, RE007 growth inh 4%, StopGo reporter -14% and SARS PLpro yeast 3%.
Cc1c2cnn(CC(=O)NCCN3CCOCC3)c(=O)c2c(C)n1Cc1ccccc1 was read as NS1 function inh 2%, RE007 growth inh -3%, StopGo reporter -8% and SARS PLpro yeast 1%.
`O=C(Nc1c(O)c2ccccc2oc1=O)c1ccccc1Cl` gave Cruzain Triton -1.6%, Cruzain inh noDet 17%, MARV entry inh -5%[46.1 µM], LASV entry inh 24%[46.1 µM] and StopGo reporter -6%.
O=C(Cc1ccccc1F)N1CCN(CC(=O)N2CCCC2)CC1 was read as MARV entry inh 2%, RE007 growth inh -8%, LASV entry inh -14%, StopGo reporter -2% and SARS PLpro yeast -1%.
`O=C(Oc1ccc(F)cc1)c1nc(SCc2ccccc2F)ncc1Cl` gave Cruzain Triton -0.1%, Cruzain inh noDet -5%, MARV entry inh 2%[46.1 µM], LASV entry inh 18%[46.1 µM] and StopGo reporter -19%.
CCC1CN(C(=O)N2CCC(C(=O)NCc3ccccc3C)CC2)c2ccccc2O1 (configuration not stated) was read as Cruzain Triton -4.2%, Cruzain inh noDet 14%, NS1 function inh -7%, RE007 growth inh -11%, LASV entry inh 5%[46.1 µM], StopGo reporter inconclusive and SARS PLpro yeast -1%.
For CCc1ccc2[nH]c(=O)c(-c3ccccc3)c(O)c2c1 the results were NS1 function inh -3%, MARV entry inh -5%[46.1 µM], RE007 growth inh -14%, LASV entry inh -1%[46.1 µM], StopGo reporter -4% and SARS PLpro yeast -4%.
Screening CCc1nnc(SCC(=O)N2CCc3ccccc32)n1CC returned NS1 function inh 0%, RE007 growth inh -12%, StopGo reporter -11% and SARS PLpro yeast -1%.
Screening CCc1nc2oc3ccccc3c(=O)c2cc1C(=O)OC returned NS1 function inh 3%, MARV entry inh inconclusive, RE007 growth inh -9%, LASV entry inh -7%, StopGo reporter 70%[activator] and SARS PLpro yeast -1%.
`CC1CCCN(S(=O)(=O)c2ccc(N3CCCCS3(=O)=O)cc2)C1` (configuration not stated) gave Cruzain Triton 0.9%, Cruzain inh noDet -5%, LASV entry inh 5%[46.1 µM] and StopGo reporter 0%.
OCCNCc1ccc(-c2ccccc2)cc1 was read as Cruzain Triton 0.8%, Cruzain inh noDet -5%, NS1 function inh 7%, MARV entry inh inconclusive, RE007 growth inh -4%, LASV entry inh 11%, StopGo reporter 7% and SARS PLpro yeast 10%.
Screening CC12C(=O)N(c3ccc(C(=O)N4CCOCC4)cc3)C(=O)C1C1c3ccccc3C2c2ccccc21 (configuration not stated) returned Cruzain Triton 0.0%, Cruzain inh noDet inconclusive, NS1 function inh -5%, MARV entry inh 20%, LASV entry inh 12% and SARS PLpro yeast -16%.
`Cc1cccc(NC(=O)C(Cc2ccccc2)NS(=O)(=O)c2ccc3c(c2)c(=O)n(C)c(=O)n3C)c1` (configuration not stated) gave Cruzain Triton 1.9%, Cruzain inh noDet -2%, MARV entry inh -9%[46.1 µM], LASV entry inh 26%[46.1 µM] and StopGo reporter -18%.
Screening O=C(CC(c1ccccc1)c1ccccc1)Nc1ccc2c(c1)OCCO2 returned Cruzain Triton -4.3%, Cruzain inh noDet inconclusive, NS1 function inh -15%, MARV entry inh inconclusive, RE007 growth inh -2%, LASV entry inh -45%, StopGo reporter -29% and SARS PLpro yeast -9%.
`COc1cc(Cl)c(CN2CCCC(CO)(Cc3ccccc3)C2)cc1OC` (configuration not stated) gave NS1 function inh 10%, MARV entry inh inconclusive, RE007 growth inh -10%, LASV entry inh inconclusive, StopGo reporter -6% and SARS PLpro yeast -1%.
`COc1cc(N2C(=O)C=CC2=O)ccc1N1C(=O)C=CC1=O` gave MARV entry inh inconclusive, RE007 growth inh -11%, LASV entry inh inconclusive and StopGo reporter 32µM*.
Screening O=C1C2C(c3ccccc3)(C(=O)N1c1ccc(Cl)cc1)C2(c1ccccc1)c1ccccc1 (configuration not stated) returned Cruzain Triton -1.7%, Cruzain inh noDet 25µM*, NS1 function inh 9%, MARV entry inh inconclusive, RE007 growth inh 4%, LASV entry inh -23%, StopGo reporter -21% and SARS PLpro yeast -23%.
CCC(=O)N1CCc2cc(S(=O)(=O)NC(C(=O)NC3CCCc4ccccc43)C(C)C)ccc21 (configuration not stated) was read as Cruzain Triton -0.5%, Cruzain inh noDet -3%, NS1 function inh inconclusive, MARV entry inh inconclusive, RE007 growth inh 3%, LASV entry inh 6%, StopGo reporter -12% and SARS PLpro yeast inconclusive.
`Cc1c(Cl)cccc1NC(=O)CCN1CCCCCC1` gave Cruzain Triton 2.5%, Cruzain inh noDet 2%, NS1 function inh 0%, MARV entry inh -27%, RE007 growth inh 2%, LASV entry inh -4%, StopGo reporter 13% and SARS PLpro yeast 0%.
`COc1ccccc1NC(=O)COn1nnc2ccc(S(=O)(=O)N3CCOCC3)cc21` gave MARV entry inh 8%[46.1 µM], RE007 growth inh 28%, LASV entry inh 4%, StopGo reporter -14% and SARS PLpro yeast 1%.
Screening COc1ccc(-c2cc([C@H]3[C@@H]4C=CCC[C@@]4(C)C(=O)N3Cc3ccccc3)ccc2F)cc1 returned NS1 function inh 8%, RE007 growth inh 3%, StopGo reporter -27% and SARS PLpro yeast -7%.
For O=S(=O)(c1cccs1)n1cccn1 the results were Cruzain Triton 4.4%, Cruzain inh noDet -1%, NS1 function inh -7%, MARV entry inh inconclusive, RE007 growth inh 12%, LASV entry inh -15%, StopGo reporter 7% and SARS PLpro yeast -1%.
For c1ccc(-c2nc3ccccc3c3nc4ccccc4n23)cc1 the results were Cruzain Triton -2.7%, Cruzain inh noDet 16%, NS1 function inh 2%, MARV entry inh 8%, RE007 growth inh 2%, LASV entry inh 1%, StopGo reporter -21% and SARS PLpro yeast -16%.
For O=C(COC(=O)Cc1cccc2ccccc12)Nc1ccccc1-c1ccccc1 the results were Cruzain Triton -4.8%, Cruzain inh noDet 0%, NS1 function inh -9%, MARV entry inh -20%, RE007 growth inh -3%, LASV entry inh 2%, StopGo reporter 0% and SARS PLpro yeast -40%.
`O=C(NC1CC1)c1cc(=O)c2ccccc2o1` gave Cruzain Triton 0.8%, Cruzain inh noDet -6%, NS1 function inh -11%, MARV entry inh 7%[46.1 µM], RE007 growth inh -11%, LASV entry inh -2%, StopGo reporter 5% and SARS PLpro yeast 4%.
Screening CCOc1ccc(-n2c(=O)c3sccc3n(Cc3cccc([N+](=O)[O-])c3)c2=O)cc1 returned NS1 function inh 1%, RE007 growth inh 0%, StopGo reporter -11% and SARS PLpro yeast 0%.
Screening CCc1cccc(NC(=O)Cn2c(=O)n(CCC(=O)NCC3CCCO3)c(=O)c3cc(OC)c(OC)cc32)c1 (configuration not stated) returned Cruzain Triton -2.0%, Cruzain inh noDet 14%, NS1 function inh -20%, MARV entry inh -4%&3%[46.1 µM], RE007 growth inh -10%, LASV entry inh -17%[46.1 µM], StopGo reporter -9%&-19% and SARS PLpro yeast 1%.
O=C(c1cc(=O)c2cc(Cl)ccc2o1)N(Cc1ccccc1)C1CCS(=O)(=O)C1 (configuration not stated) was read as Cruzain Triton -2.2%, Cruzain inh noDet 10%, MARV entry inh inconclusive, LASV entry inh -15%[46.1 µM] and StopGo reporter -17%.
CC(NC(=O)Cc1cccs1)C(c1cccs1)N1CCN(c2ccccc2)CC1 (configuration not stated) was read as NS1 function inh -18%, MARV entry inh inconclusive, RE007 growth inh 11% and LASV entry inh -9%.
CCOC(=O)N1CCC(Nc2c(Nc3ccc(F)cc3)c(=O)c2=O)CC1 was read as Cruzain Triton -2.1%, Cruzain inh noDet 5%, NS1 function inh -1%, MARV entry inh 3%, RE007 growth inh -6%, LASV entry inh -10%, StopGo reporter 52%[activator] and SARS PLpro yeast -4%.
For O=C(CCCn1c(=O)c2cccn2c2cccnc21)N1CCN(c2ccccc2F)CC1 the results were NS1 function inh 8%, RE007 growth inh -3%, StopGo reporter -22% and SARS PLpro yeast -1%.
`Cn1ncc(Cl)c1C(=O)N1CCN(c2ncccn2)CC1` gave NS1 function inh -4%, RE007 growth inh 2%, StopGo reporter -8% and SARS PLpro yeast 0%.
`Cc1c(NC(=O)c2ccc3c(c2)C(=O)N(CC2CCCO2)C3=O)cccc1C(=O)O` (configuration not stated) gave Cruzain Triton -2.4%, Cruzain inh noDet -1%, NS1 function inh 0%, MARV entry inh 19%, RE007 growth inh -8%, LASV entry inh 5%, StopGo reporter -20% and SARS PLpro yeast -2%.
Screening COc1cc(F)ccc1S(=O)(=O)NCc1cccnc1 returned NS1 function inh -2%, RE007 growth inh 1%, StopGo reporter 35%[activator] and SARS PLpro yeast 2%.
CCN(Cc1ccccc1)C(c1ccc(C(F)(F)F)cc1)c1nnnn1C(C)(C)C (configuration not stated) was read as MARV entry inh inconclusive, RE007 growth inh 19%, LASV entry inh inconclusive and StopGo reporter 0%.
